Source: PubChem
UCH37 DUB inh = inhibitors of human deubiquitinating enzyme UCH37; purified proteasome/UCH37, Ub-AMC cleavage fluorescence; inhibition, % (test concentration not listed); hit rate 0.33% among 330,000; AID 588478;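 active = mean of two replicates above 20%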;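 also: 0% = compound-free wells with enzyme and 100% = wells lacking proteasome; stock transfer was 100 nL into about 20 µL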
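Signal – fluorescence, ex 355 nm, em 460 nm · System – Proteasome-bound UCH37 · Input – 0.15 nM proteasome as dispensed · Timing – 30 min preincubation with enzyme, 25 min cleavage at room temperature · Read-out basis – percent inhibition of cleavage signal versus uninhibited and no-proteasome wells · Medium – Tris-HCl pH 7.4 with ATP-MgCl2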
Beta apoptosis = beta cell apoptosis inhibition; protection from apoptosis, % (test concentration not listed); INS-1E cytokine-induced death, ATP luminescence, 48 h; percent of positive-control rescue, neutral wells zero; hit rate 0.8% among 300,000; AID 435005;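 active = all replicates at 75% or more, or half of them and the mean; inconclusive = half reach 75% but not the mean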;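 also: 0% = cytokine-treated negative control wells and 100% = positive control rescue; higher means more ATP so stronger rescue from cytokine killing; wells of about 40 µL received 100 nL stock; the first replicate is given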
A1 inh = inhibitors of the anti-apoptotic protein A1, read as caspase activation; MEF A1-2A-BIM cells, Caspase-Glo 3/7 luminescence, 3 h; percent of clofoctol response, vehicle zero; caspase activation, % (concentration not given with the values); hit rate 0.066% among 330,000;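 active = over half of replicate activation scores above 10%, or exactly half above 10 with the replicate mean above 10; inconclusive = replicate mean below 10 yet half the replicates above 10; inactive = over half of replicates below 10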;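 also: wells of about 30 µL received 50 nL stock; many hits fall short of the cut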
FGF22 binding = FGF22 (human) thermal shift binding | Q9HCT0 | recombinant FGF22 thermal shift, SYPRO orange fluorescence; percent of sucrose octasulfate shift, DMSO zero | calls only at 9.99 µM | hit rate 1.5% among 340,000;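 active = melting point raised past a set limit in the mean and every replicate; inconclusive = no clear call; three in four hits are not shown here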
Target sequence (Q9HCT0 whole entry, looked up): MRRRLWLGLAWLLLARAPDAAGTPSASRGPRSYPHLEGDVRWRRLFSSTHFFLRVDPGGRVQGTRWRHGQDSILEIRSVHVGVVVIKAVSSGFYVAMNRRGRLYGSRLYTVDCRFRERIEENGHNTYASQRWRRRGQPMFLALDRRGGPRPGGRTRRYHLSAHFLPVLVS
Ecoli rRNA inh = selective bacterial rRNA inhibition in E. coli; GFP signal change (wild-type ribosome), % (concentration not given with the values); E. coli WT GFP vs humanized-ribosome RFP mutants, fluorescence, 24 h; active compounds read low; DMSO median 0, no signal -100; hit rate 1.6% among 350,000;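 active = significant combined selectivity score with lowered wild-type GFP, culture density cut under 30%, mutant RFP and density less affected; inactive = any of these conditions unmet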; also: one replicate is shown; some compounds called inactive have numbers as strong as hits
T cruzi repl = blocks replication of Trypanosoma cruzi; T. cruzi beta-gal in NIH3T3, luminescence, 90 h; inhibition, % (no concentration beside the values); hit rate 1.4% among 300,000; AID 1885;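 active = mean inhibition across valid replicates above about 55%, limit read from the data; inconclusive = mean below that limit but half or more replicates reach it; inactive = mean below it, under half of replicates reach it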;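 also: signal also drops with host cell toxicity which is not excluded here; 0% = plate median of DMSO wells and 100% = zero luminescence signal; higher percent means less beta-gal luminescence so fewer parasites; stock transfer was 50 nL into about 50 µL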
AF4-AF9 inh = inhibitors of human MLL-AF4/AF9 interaction; AlphaScreen, biotin-AF4 peptide binding to FLAG-AF9; inhibition, % at 10 µM; hit rate 0.47% among 350,000;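 active = every replicate reaching a set inhibition limit, whatever the replicate mean, cut at about 25% in these data; inconclusive = mean inhibition reaches that limit but some replicates miss it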;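 also: 0% = plate neutral control median and 100% = total signal loss; the record names both 10 and 1 µM as test concentration; the first replicate is given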
Target sequence (P42568 whole entry, looked up): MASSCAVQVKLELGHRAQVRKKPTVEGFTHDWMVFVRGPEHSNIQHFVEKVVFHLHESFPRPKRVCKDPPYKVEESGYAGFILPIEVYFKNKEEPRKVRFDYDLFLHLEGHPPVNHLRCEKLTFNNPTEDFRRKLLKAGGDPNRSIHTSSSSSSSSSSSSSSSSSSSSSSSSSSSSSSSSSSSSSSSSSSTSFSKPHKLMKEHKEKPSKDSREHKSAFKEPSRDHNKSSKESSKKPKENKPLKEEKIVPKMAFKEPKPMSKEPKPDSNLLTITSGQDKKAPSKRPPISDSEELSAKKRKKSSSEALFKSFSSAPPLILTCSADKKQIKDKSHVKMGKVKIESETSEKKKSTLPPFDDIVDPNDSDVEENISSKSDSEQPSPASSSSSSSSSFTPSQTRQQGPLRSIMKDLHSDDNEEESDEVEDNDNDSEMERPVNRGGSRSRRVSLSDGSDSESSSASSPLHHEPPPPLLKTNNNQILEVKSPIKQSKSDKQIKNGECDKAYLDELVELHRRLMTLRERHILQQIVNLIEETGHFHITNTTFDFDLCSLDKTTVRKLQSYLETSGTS
E coli growth = inhibitors of Escherichia coli growth | OD600, 23 h; active compounds read low | OD600 absorbance (concentration not given with the values) | hit rate 0.21% among 330,000;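 active = OD600 absorbance below the run mean of sample wells minus 3.6 SD, in any replicate, cut at about 0.56 in these data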;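 also: stock transfer was 300 nL into about 60 µL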
Ecoli rRNA inh OD600 = also measured in Ecoli rRNA inh; calls as there; OD600 change, %; measured here: OD600 growth;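 optical density of the mix in the first replicate; 0 = DMSO median and -100 = no signal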
Ecoli rRNA inh RFP = recorded beside Ecoli rRNA inh, whose call it bears; RFP signal change, %; measured here: RFP humanized mutant strains;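 first replicate; 0 = DMSO median and -100 = no signal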
An asterisk follows results filed as active; i = inactive; ? = inconclusive; . = not tested or not shown.

SMILES	UCH37 DUB inh	Beta apoptosis	A1 inh	FGF22 binding	Ecoli rRNA inh	Ecoli rRNA inh OD600	Ecoli rRNA inh RFP	T cruzi repl	AF4-AF9 inh	E coli growth
CCn1c2ccccc2c2nc3cc(C(=O)O)ccc3nc21	4.8	.	.	i	-5.5	-7.0	-1.2	.	-1.0	0.712
CCN(c1ccc(NC(=O)CCNC(=O)c2ccco2)cc1)C(C)C	0.4	-7.7	-0.1	i	-4.3	-8.4	14.1	-10.9	5.5	0.674
Cc1nc2sc(C(c3cccs3)N3CCC(C(N)=O)CC3)c(O)n2n1 (stereo not given)	5.4	-6.6	1.2	i	5.0	9.3	-2.2	9.0	-6.2	0.735
Cc1ccccc1Nc1nc(N)nc(COC(=O)CCNS(=O)(=O)c2ccccc2)n1	5.8	-0.8	0.1	i	-0.2	6.9	0.6	-5.6	-11.2	0.651
O=c1[nH]c(=O)n(Cc2ccco2)c2c1C(C(F)(F)F)(C(F)(F)F)N=C(CCC1CCCCC1)N2	-44.8	.	0.5	.	.	.	.	10.7	.	0.711
O=C(CNC(=O)c1ccco1)OCc1ccc(Cl)cc1	3.5	-1.3	0.7	.	.	.	.	-6.6	.	0.682
CCC(C)(C)C(=O)Nc1cccc(Cl)c1C	.	-0.9	0.9	i	1.2	-4.5	-1.9	-7.0	-0.2	.
CCOC(=O)Cn1nc(C)c(NC(=O)COc2ccc(F)cc2F)c1C	4.4	1.8	0.1	.	.	.	.	10.4	.	0.681
COc1cc(/C=C/C(=O)OC(C)C(=O)c2ccccc2)cc(OC)c1OC (stereo not given)	-0.7	0.9	-0.8	i	-20.9	-19.6	-0.7	21.8	3.2	0.698
O=C(N/C(=C/c1cn(-c2ccccc2)nc1-c1ccccc1)C(=O)N1CCOCC1)c1ccccc1	-4.9	-3.1	0.1	.	.	.	.	-15.7	.	0.714
Cc1cc(CNC(=O)C(C)n2cc([N+](=O)[O-])cn2)c2ccccc2n1 (stereo not given)	-4.2	-2.1	1.2	i	6.3	8.7	0.7	-6.8	-0.4	0.698
COc1ccc(C(=O)NC(=S)NCc2ccc(-c3nc4ccccc4o3)cc2)cc1OC	3.8	3.4	1.0	.	.	.	.	1.2	.	0.695
CC(C)CC(=O)Nc1c2c(nn1-c1ccc([N+](=O)[O-])cc1)CS(=O)(=O)C2	4.9	-5.4	0.5	i	17.4	18.5	3.6	-4.0	1.8	0.662
OC(COc1cccc2ccccc12)CN1CCN(c2ccccc2Cl)CC1 (stereo not given)	.	-10.6	0.1	i	-57.5	-78.0	-14.9	8.1	?	.
CN1CCN(c2ccc(S(=O)(=O)N3CCCCC3)cc2NC(=O)c2ccc(C#N)cc2)CC1	4.2	-3.4	-0.7	i	-7.2	-6.2	27.0	55.7*	4.5	0.719
CC(CN1CCCC1)OC(=O)c1ccccc1Cl (stereo not given)	3.3	.	0.7	i	7.8	6.7	-1.8	-3.9	-8.2	0.646
O=C(CC1C(=O)NCCN1CCCc1ccccc1)NCCc1ccccc1F (stereo not given)	-7.0	-2.7	-0.6	i	-6.4	-13.3	-1.3	-3.0	-1.4	0.661
COc1ccc2c(c1)C(=O)CC(c1ccc(OC)c(OC)c1)O2 (stereo not given)	-1.4	.	0.3	i	3.3	7.1	-1.5	14.4	-9.5	0.706
CCc1c(C)sc(NC(=O)OC)c1C(N)=O	1.4	0.2	0.7	.	.	.	.	7.8	.	0.685
CC(C)(C)Cc1nnc(NS(C)(=O)=O)s1	1.3	-8.8	0.1	.	.	.	.	-0.2	.	0.722
Cc1ccc(Cn2c(=N)c(S(=O)(=O)c3ccc(C)cc3)cc3c(=O)n4ccccc4nc32)cc1	-12.2	.	-0.8	i	4.8	2.8	-0.4	-7.4	-5.0	0.722
CCN1C(=O)CC(Sc2ccccc2N)C1=O (stereo not given)	1.2	-2.9	0.4	.	.	.	.	-5.0	.	0.698
COc1ccc(-n2c(SCC(=O)N3CCCC3)nc3ccccc3c2=O)cc1	3.2	-3.7	0.3	.	.	.	.	9.8	.	0.718
CCc1cc2c(=O)c(-c3nc4ccccc4[nH]3)coc2c(CN2CCCCC2C)c1O (stereo not given)	3.0	9.3	-0.2	i	-2.9	5.7	0.4	-4.2	4.5	0.699
COc1ccccc1CNS(=O)(=O)c1ccc(C)cc1	-0.8	1.9	0.1	.	.	.	.	-9.1	.	0.713
CCN(C(=O)CSc1nc2n[nH]c(C)c2c(=N)n1-c1ccc(Cl)c(C)c1)c1cccc(C)c1	-7.7	34.4	-4.3	i	17.8	11.3	2.7	30.6	-1.8	0.721
CC(=O)c1c(C(C)=O)c(C)n(-c2nc(-c3ccccc3)c(C)s2)c1C	0.2	5.1	0.7	.	.	.	.	1.8	.	0.724
O=C(NC1c2ccccc2-c2ccccc21)c1ccco1	1.8	-12.8	0.8	.	.	.	.	-29.4	.	0.767
COc1cc(/C=C/C(=O)OCC(=O)Nc2cc(S(=O)(=O)N3CCOCC3)ccc2Cl)cc(OC)c1OC	-9.8	-1.2	0.8	i	-6.5	-7.2	3.7	.	1.9	0.74
CCC(NC(=O)NCc1cccnc1)(C(F)(F)F)C(F)(F)F	2.3	-7.3	-0.5	.	.	.	.	15.0	.	0.72
COc1cc2ccc3c(CCN(C)C)cc(OC)c(OC)c3c2cc1OC	-4.6	.	1.0	i	0.4	1.4	2.0	39.7	9.5	0.681
COC(=O)Cn1c2ccccc2c2nc(C)sc21	5.1	1.1	0.1	.	.	.	.	-12.9	.	0.724
CCCCN(CCCC)CCCNC(=O)C12CN(Cc3ccccc3)CC1C(c1cccc([N+](=O)[O-])c1)=NO2 (stereo not given)	4.0	-2.6	0.4	i	-4.2	-9.5	19.2	-0.7	-4.7	0.64
Cc1cc(C(=O)COC(=O)c2ccc(Cl)c(S(N)(=O)=O)c2)c(C)n1CC1CCCO1 (stereo not given)	-0.9	-0.8	-0.9	i	-6.7	-4.9	-1.6	7.8	4.5	0.691
N#Cc1ccc(NCCc2ccccn2)c([N+](=O)[O-])c1	4.9	0.2	-0.2	i	3.7	2.4	2.4	-20.2	3.3	0.615
Cn1c(=O)cc(NCCc2ccccc2)[nH]c1=O	1.0	-5.5	0.1	.	.	.	.	-25.3	.	0.691
CC1=CC2=NC(=O)/C(=C/c3coc4ccccc4c3=O)C(=N)N2O1	.	3.9	1.0	i	2.5	-21.0	7.4	-2.5	-2.7	.
CN(C(=O)c1ccc(NC(=O)Cc2ccc(NC(=O)C3CCN(C(=O)c4ccccc4)CC3)cc2)cc1)C1CC1	0.9	0.3	1.2	i	-1.3	2.1	3.9	.	37.5*	.
COc1cccc(NC(=O)CN(C)C(=O)c2cc3c(s2)CCC3)c1	.	-2.1	0.2	i	0.9	-1.5	-1.1	-4.2	1.2	.
Cc1ccc(NC(=O)NC2CCN(S(=O)(=O)c3ccc(F)cc3)CC2)cc1	5.0	-4.0	-0.2	i	10.7	5.5	0.7	3.7	-25.7	0.666

For reference, some entries already given:
SMILES	UCH37 DUB inh	Beta apoptosis	A1 inh	FGF22 binding	Ecoli rRNA inh	Ecoli rRNA inh OD600	Ecoli rRNA inh RFP	T cruzi repl	AF4-AF9 inh	E coli growth
CCn1c2ccccc2c2nc3cc(C(=O)O)ccc3nc21	4.8	.	.	i	-5.5	-7.0	-1.2	.	-1.0	0.712
CCN(c1ccc(NC(=O)CCNC(=O)c2ccco2)cc1)C(C)C	0.4	-7.7	-0.1	i	-4.3	-8.4	14.1	-10.9	5.5	0.674
Cc1nc2sc(C(c3cccs3)N3CCC(C(N)=O)CC3)c(O)n2n1 (stereo not given)	5.4	-6.6	1.2	i	5.0	9.3	-2.2	9.0	-6.2	0.735
Cc1ccccc1Nc1nc(N)nc(COC(=O)CCNS(=O)(=O)c2ccccc2)n1	5.8	-0.8	0.1	i	-0.2	6.9	0.6	-5.6	-11.2	0.651
O=c1[nH]c(=O)n(Cc2ccco2)c2c1C(C(F)(F)F)(C(F)(F)F)N=C(CCC1CCCCC1)N2	-44.8	.	0.5	.	.	.	.	10.7	.	0.711
O=C(CNC(=O)c1ccco1)OCc1ccc(Cl)cc1	3.5	-1.3	0.7	.	.	.	.	-6.6	.	0.682
CCC(C)(C)C(=O)Nc1cccc(Cl)c1C	.	-0.9	0.9	i	1.2	-4.5	-1.9	-7.0	-0.2	.
CCOC(=O)Cn1nc(C)c(NC(=O)COc2ccc(F)cc2F)c1C	4.4	1.8	0.1	.	.	.	.	10.4	.	0.681
COc1cc(/C=C/C(=O)OC(C)C(=O)c2ccccc2)cc(OC)c1OC (stereo not given)	-0.7	0.9	-0.8	i	-20.9	-19.6	-0.7	21.8	3.2	0.698

The list continues.
SMILES	UCH37 DUB inh	Beta apoptosis	A1 inh	FGF22 binding	Ecoli rRNA inh	Ecoli rRNA inh OD600	Ecoli rRNA inh RFP	T cruzi repl	AF4-AF9 inh	E coli growth
COc1ccc(-c2[nH]ncc2/C=N/NC(=O)c2ccc(Br)cc2)c(OC)c1	.	3.6	0.2	i	2.6	2.8	-4.3	5.4	5.6	.
COP(C)(=O)c1c(C)nn(-c2ccccc2)c1C (stereo not given)	-0.9	-5.3	?	.	.	.	.	1.5	.	0.688
CCN(CC)c1ccc(NC(=O)CN2CCN(CC(=O)Nc3ccccc3OC)CC2)cc1	5.5	.	0.3	i	4.1	8.0	-3.8	-3.0	13.0	0.653
Cc1ccc(N=C2N=C(N)c3ccccc32)cc1C	6.7	-4.2	0.6	.	.	.	.	-21.5	.	0.697
C=C(Br)Cn1c(CCCC)nc2ccccc21	1.3	7.8	-0.3	.	.	.	.	7.1	.	0.69
CCc1ccc(NC(=O)C2CC(=O)N(C(C)C)C2)cc1 (stereo not given)	1.0	-5.0	1.3	.	.	.	.	-5.8	.	0.685
CCOC(=O)c1c(NC(=O)C2CC2)sc(C)c1CC	5.9	0.4	1.3	.	.	.	.	16.0	.	0.673
COc1ccc(Nc2ccc([N+](=O)[O-])c3nonc23)c(OC)c1	4.6	11.4	-0.6	i	10.4	4.1	9.5	-1.3	3.7	0.697
CCOC(=O)C1=C(C)NC2=C(C(=O)CC(c3cccs3)C2)C1c1cccs1 (stereo not given)	-41.6	6.8	-0.6	.	.	.	.	-9.7	.	0.771
C=CCn1c(SCC(=O)Nc2cc(C)on2)nnc1-c1ccccc1F	0.2	-5.3	-0.2	.	-7.4	1.7	-1.7	.	7.1	0.699

Only part of the results is shown (hit frequency here may not be typical).
